S aureus helic – blocks Staphylococcus aureus DNA helicase; purified S. aureus helicase, fluorescence unwinding assay; about half of the hits fall short of the stated cut; 0.05% of 120,000 active; AID 485395; inhibition, %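 (tested at about 80 µM)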;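 active = both duplicates at 50% or more, or one of them with a favoured structure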;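 note: 0% = mean of negative control wells and 100% = mean of positive control wells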
MgrA DNA FP – modulators of Staphylococcus aureus MgrA DNA binding. inhibition, %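 (about 10 µg/mL by stock and volumes)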. 0.13% of 84,000 active. fluorescence polarization. AID 602314;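 active = above 50% in either of two replicates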;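 note: 0% = protein plus DNA without compound and 100% = DNA alone without protein; higher means less MgrA bound to DNA so lower polarization; one replicate is shown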
Active calls of the source: *; x = not tested or not shown. A portion of the library; count on the stated rates, not on these rows.

SMILES	S aureus helic	MgrA DNA FP
Oc1cc(O)c2ncccc2c1	-1.0	8.9
O=c1[nH]c(=O)n(C2C[C@H](O)[C@@H](CO)O2)cc1C(F)(F)F (stereo partly drawn)	x	1.0
Cc1ccc2nc(/C(C#N)=C\C3CC4C=CC3C4)[nH]c2c1 (stereo not drawn)	3.0	6.1
O=C(CSc1ccc(Cl)cc1)N=C1NC(=O)CS1	1.0	6.9
COc1ccc(CNn2c(C)n[nH]c2=S)cc1	8.0	2.8
CSc1nnc(NC(=O)c2ccc(F)cc2)s1	4.0	x
CN(C)C(=O)Cn1nc(-c2ccccc2)c2ccccc2c1=O	0.0	1.2
CCOc1ccc(CNc2ccc(CNc3ncn[nH]3)cc2)cc1	14.0	1.6
C=CCSc1ncc(-c2ccc(Cl)cc2)[nH]1	x	1.2
CCOc1ccc2ncc(C(=O)c3ccc(OC)cc3)c(N3CCN(C)CC3)c2c1	23.0	x
N#Cc1c(-c2ccc3c(c2)OCO3)csc1N	13.0	x
O=C(O)c1ccc(N2CC3CC(C2)c2cccc(=O)n2C3)c(NS(=O)(=O)c2cccc(C(F)(F)F)c2)c1 (stereo not drawn)	-5.0	x
O=c1[nH]cnc2scc(-c3cccs3)c12	5.0	0.7
O=C(Cc1ccccc1)NCc1nc2ccccc2[nH]1	-8.0	x
CCc1onc(C)c1C(=O)Nc1ccc2c(c1)OCO2	3.0	x
CC(C)(C)S(=O)(=O)c1ccc(C(=O)O)s1	7.0	-2.1
N#CC1=C(N)Oc2c(c(=O)oc3ccccc23)C12C(=O)Nc1ccccc12 (stereo not drawn)	6.0	5.5
COc1ccccc1N1CCN(/C=C2/SC(=S)NC2=O)CC1	-3.0	x
COCCn1c(SCC(=O)C(F)(F)F)nnc1-c1ccncc1	-14.0	x
Cn1nc(-c2ccc(C(=O)Nc3ccc(Cl)cc3)s2)cc1C(F)(F)F	x	-1.0
CCc1cc2c(SCC(N)=O)ncnc2s1	-8.0	1.6
CN(C)S(=O)(=O)c1ccc(N2CCCC2)c(C(=O)OCC(=O)NCc2ccc3c(c2)OCO3)c1	20.0	x
O=C(CSc1ccccc1)Nc1ccc(F)c(F)c1F	x	0.3
COc1ccc(C(=O)OCc2ccccc2F)c(OC)c1OC	-6.0	x
COC(=O)C(Cc1ccccc1)NC(C)=O (stereo not drawn)	x	-0.3

Looked up by structure from the list above:
SMILES	S aureus helic	MgrA DNA FP
O=c1[nH]cnc2scc(-c3cccs3)c12	5.0	0.7
Cc1ccc2nc(/C(C#N)=C\C3CC4C=CC3C4)[nH]c2c1 (stereo not drawn)	3.0	6.1
O=C(Cc1ccccc1)NCc1nc2ccccc2[nH]1	-8.0	x

Next structures.
SMILES	S aureus helic	MgrA DNA FP
C=CCn1c(CNC(=O)c2cccc(C)c2)nc2ccccc21	2.0	x
COC(=O)C1=CNC=C(C(=O)OC)C1c1cccc(OC)c1	15.0	x
CN(C)/C=N/c1nc2ccccc2s1	11.0	x
CCOc1ccc(S(=O)(=O)N2CCc3ccccc3C2)cc1	-16.0	x
CC(C)N(CCC#N)C(=S)Nc1ccc(F)cc1	x	-1.3
CCN(CC)c1ccc2cc(-c3ncc(-c4ccc(F)cc4)o3)c(=O)oc2c1	-126.0	9.2
O=C(N[C@@H](Cc1ccccc1)C(=O)OCc1ccccc1)c1ccco1	3.0	x
O=C(CCSc1ccccn1)c1ccc(Cl)cc1	x	-10.1
COc1ccc(/C=C(\NC(=O)c2ccccc2)C(=O)Nc2ccc(F)cc2)cc1OC	14.0	-1.0
COC(=O)c1nc2n(n1)C(c1cc(OC)c(OC)c(OC)c1)C=C(c1cccc(OC)c1)N2 (stereo not drawn)	5.0	x
O=S(=O)(c1ccc(N=C2NN=C(c3cc(F)ccc3F)CS2)cc1)N1CCOCC1	8.0	x
O=c1ccn(-c2ccc(F)cc2)nc1-c1ccn[nH]1	x	0.2
Cc1occc1C(=O)N=Nc1c(O)n(Cc2ccccc2Cl)c2ccccc12	-11.0	x
CCOC(=O)c1c(C(=O)CSc2ncc(-c3ccc(F)cc3)n2Cc2ccco2)sc2c1CCCC2	1.0	-1.4
Cc1cccc(NC(=O)/C=C/c2ccccc2)c1	9.0	-1.9
CC1CCN(C(c2cccs2)c2nnnn2Cc2ccccc2)CC1 (stereo not drawn)	0.0	-3.6
Cc1cc(O)cc2occ(-c3cnn(-c4ccccc4)c3)c(=O)c12	17.0	x
OC(c1ccccc1)(c1ccccc1)C1CCN(C(=S)NCc2ccco2)CC1	-11.0	4.8
c1cncc(CSc2ccc3nnc(-c4cccnc4)n3n2)c1	17.0	x
COc1cc(C=C2C(=O)NC(=O)NC2=O)ccc1OCCSc1ccc(C)cc1	x	2.8
COc1ccc(/C=C/C(=O)N2CCCCC2)cc1OC	16.0	x
CCN(CC)C(=O)c1ccc2c(c1)N(Cc1ccccc1)C(=O)c1ccccc1S2(=O)=O	6.0	x
Cc1cc(C)nc(NS(=O)(=O)c2ccc(NC(=O)c3ccccc3Br)cc2)n1	x	-1.6
CC1CCCCC1NC(=O)COC(=O)c1ccc(O)cc1 (stereo not drawn)	-2.0	x
CCOC(=S)SCc1cn2cccnc2n1	-2.0	1.1

Of the compounds above, these contain a thiophene ring, fused or not:
SMILES	S aureus helic	MgrA DNA FP
N#Cc1c(-c2ccc3c(c2)OCO3)csc1N	13.0	x
O=c1[nH]cnc2scc(-c3cccs3)c12	5.0	0.7
CC(C)(C)S(=O)(=O)c1ccc(C(=O)O)s1	7.0	-2.1
Cn1nc(-c2ccc(C(=O)Nc3ccc(Cl)cc3)s2)cc1C(F)(F)F	x	-1.0
CCc1cc2c(SCC(N)=O)ncnc2s1	-8.0	1.6
CCOC(=O)c1c(C(=O)CSc2ncc(-c3ccc(F)cc3)n2Cc2ccco2)sc2c1CCCC2	1.0	-1.4
CC1CCN(C(c2cccs2)c2nnnn2Cc2ccccc2)CC1 (stereo not drawn)	0.0	-3.6

(further entries)
SMILES	S aureus helic	MgrA DNA FP
CCCSCCCn1cnc2c([nH]c3cc(OC)ccc32)c1=O	19.0	x
COC(=O)c1ccccc1NC(=S)N1CCCCC1	4.0	1.0
CC(C(=O)NCC1CCCCC1)N1CCN(c2ccc(F)cc2)CC1 (stereo not drawn)	2.0	x
Cc1sc2nc(CSCC(=O)NC(=O)c3cccn3C)[nH]c(=O)c2c1C	-17.0	x
COc1ccc(-c2nc3c(n2O)CCC/C3=N\O)cc1	x	2.5
O=C1C2C3C=CC(C3)C2C(=O)N1c1ccc(Oc2ccc(N3C(=O)C4C5C=CC(C5)C4C3=O)cc2)cc1 (stereo not drawn)	x	2.5
Cc1ccc(-c2nnc(NCc3ccco3)c3ccccc23)cc1C	-14.0	x
C/C(Cn1c(=O)oc2ccccc21)=N\OC(=O)c1ccc(Cl)cc1	5.0	x
O=S(=O)(c1ccc(-c2csnn2)cc1)N1CCOCC1	x	1.2
N=c1sccn1CC(=O)NC(=O)NC1CCCC1	-7.0	x
CCN(CC)c1ccc(NS(=O)(=O)c2ccc(F)cc2)cc1	x	0.1
O=C(c1ccc(CS(=O)Cc2cccc(Cl)c2)o1)N1CCN(Cc2ccccc2)CC1 (stereo not drawn)	18.0	x
CC(=O)OCc1nc2ccccc2s1	13.0	5.2
Cc1cccc(-c2nc3ccccc3o2)c1	-4.0	1.9
COCCN=Cc1cc(Br)cc(Br)c1O	0.0	x
O=C(c1ccccc1)c1cccn1CC(=O)N1CCCCCC1	11.0	x
N#Cc1cc2cc3c(cc2nc1N1CCCN(C(=O)c2ccccc2)CC1)OCO3	14.0	2.1
Cn1nc(-c2ccc(Cl)cc2)c2cc(C(=O)NCc3ccccn3)sc21	16.0	x
CNc1nc(Oc2ccc(=O)n(C)n2)nc(SC)n1	5.0	0.8
Cc1ccccc1Cn1cnc2ccccc21	11.0	0.0
CCOC(=O)CN(C)c1nc(-c2ccc(OC)c(OC)c2)cs1	21.0	1.8
O=C(c1ccc(Cl)cc1)N(c1ccccn1)C1CCCCC1	-7.0	x
CCCCN(C)S(=O)(=O)c1ccc(C(=O)Nc2sccc2C#N)cc1	-12.0	x
O=C(N/N=C/C=C/c1ccco1)c1ccccc1F	8.0	0.8
O=c1[nH]c2ncccc2c(=O)n1Cc1ccccc1	17.0	3.7
The listing continues:
SMILES	S aureus helic	MgrA DNA FP
O=c1oc(-c2cccs2)nc2cccc(F)c12	x	1.9
O=C(O)C1=Cc2sc3c(c2CS1)CCCC3	8.0	72.7*
O=C(/C=C/c1cccs1)NCC(c1ccc(F)cc1)N1CCOCC1 (stereo not drawn)	-8.0	-1.0
N=c1c(S(=O)(=O)c2ccccc2)cc2c(=O)n3ccccc3nc2n1Cc1cccnc1	4.0	4.7
CS(=O)(=O)Nc1ccc2c(c1)OCCO2	7.0	-0.6
O=C(Nc1sc2c(c1-c1nc3ccccc3s1)CCCC2)C1=COCCO1	-10.0	x
Cc1cc(S(=O)(=O)NN)c(C)cc1Cl	x	1.3
NC(=O)c1ccc(Oc2ncc(C(F)(F)F)cc2Cl)cc1	x	0.8
O=C(NCCN1CCCC1)c1n[nH]c(=O)c2ccccc12	15.0	x
COCc1cc(=O)[nH]c(-c2csc(C)n2)n1	x	2.4
CC1Sc2nnc(Cc3ccc(Br)cc3)n2N=C1c1ccc(NS(C)(=O)=O)cc1 (stereo not drawn)	22.0	x
CCn1c2ccccc2c2cc(NC(=O)NCc3noc4ccccc34)ccc21	-25.0	x
Cc1ccc(-c2cnnn2-c2ccc(C(=O)COC(=O)c3ccccc3F)cc2)cc1	10.0	x
COc1cccc(-c2nn(C)c3sc(C(=O)N4CCCCC4C)cc23)c1 (stereo not drawn)	19.0	0.7
COC(=O)COc1ccc(/C=C2\C(=O)NC(=O)N(c3ccccc3)C2=O)cc1OC	x	0.8
CC(C)c1cc(C(=O)N/N=C/c2ccccc2)n[nH]1	15.0	x
CC(C)(C)N=Cc1c(O)n(-c2ccccc2Cl)c(=O)c2ccccc12	-11.0	-0.1
CSc1nc(C)nc(N/C=C(\C#N)C(=O)C2CC2)n1	-14.0	x
COc1ccc2nc(-c3ccc([N+](=O)[O-])cc3)nc(-c3cccc([N+](=O)[O-])c3)c2c1	x	0.4
O=C(Cc1ccccc1)Nc1nc(-c2nc3ccccc3s2)cs1	-18.0	x
Nc1ccc(-c2cnc(-c3ccc(N)cc3)nc2)cc1	-4.0	-0.4
O=C(O)CC(c1ccccc1)N1C(=O)c2ccccc2C1=O (stereo not drawn)	1.0	1.6
N#Cc1cc(C(=O)c2ccco2)c2nc3ccccc3n2c1N	-232.0	x
CC(C)c1ccc(/C=C2\CCC/C(=C\c3ccc(C(C)C)cc3)C2=O)cc1	x	0.6
COc1ccc(CN2CCOCC2)cc1C	24.0	-0.9
New compounds follow.
SMILES	S aureus helic	MgrA DNA FP
COc1cc(C(Nc2ccccn2)c2c(C)[nH]c3ccccc23)cc(OC)c1OC (stereo not drawn)	3.0	x
O=c1[nH]c2cc3c(cc2cc1C(c1nnnn1C1CCCC1)N1CC=C(c2ccc(F)cc2)CC1)OCO3 (stereo not drawn)	12.0	-3.7
C=CCN1C(=O)C(=Nc2ccc(C)c(Cl)c2)c2ccccc21	x	0.6
Cc1ccc(-n2c(CCC(=O)OCC(=O)Nc3cc(C)on3)nc3ccccc3c2=O)cc1	6.0	x
NC(=O)Cc1cc(=O)[nH]c(=S)[nH]1	-3.0	x
CCOC(=O)C1CCN(C(=O)c2cccs2)CC1	0.0	x
O=C(CCc1nc2cccnc2n1-c1ccccc1)NC1CCCC1	7.0	-1.5
O=C(CCCc1ccccc1)NN1CCOCC1	9.0	1.5
CCC(CC)C(=O)Nc1ncc2c(n1)CC(C)CC2=O (stereo not drawn)	5.0	-9.6
COc1nc(-c2ccccc2)nnc1C(F)(F)F	x	1.1
Cc1cccc2nc(CSc3ccccc3N)cn12	-5.0	x
COc1ccccc1NC(=O)[C@H](CSCc1ccccc1)N1Cc2ccccc2C1=O	15.0	-3.1
CCCN1C(=O)/C(=N\OCC(=O)Nc2cccc(Cl)c2)c2ccccc21	3.0	x
Cc1csc(=O)n1CC(=O)OCC(=O)c1ccc(Cl)s1	-6.0	x
O=C(O)c1ccc(S(=O)(=O)c2ccc3c4c(cccc24)C(=O)N(c2cccc(O)c2)C3=O)cc1	x	6.9
COCCSc1nnc(NS(=O)(=O)c2ccccc2)s1	8.0	-0.9
O=C(COC(=O)CC1CC2CCC1C2)NC1CC1 (stereo not drawn)	-5.0	-2.0
CC(C)(C)c1ccc(C(=O)NCCN2CCOCC2)cc1	8.0	-0.6
CC(C)(C)c1ccc2c(c1)CN(c1ccc(F)cc1)CO2	32.0	x
COC(=O)c1ccc(COC(=O)CNC(=O)C23CC4CC(CC(C4)C2)C3)o1	-4.0	x
O=C(Cn1c(=O)oc2cc(S(=O)(=O)NC3CCCC3)ccc21)NCc1cccs1	-2.0	-2.1
CC(C)N(Cc1nc(-c2ccccc2)no1)C(=O)c1cccs1	16.0	-0.6
COC(=O)CC1SC(=O)NC1=Nc1cccc(C)c1 (stereo not drawn)	5.0	-1.1
NC(=O)c1ccsc1NC(=O)Cc1c[nH]c2ccccc12	-5.0	x
O=S(=O)(Nc1nc2ccccc2nc1SCCO)c1cc(F)ccc1F	-9.0	x
(more compounds)
SMILES	S aureus helic	MgrA DNA FP
O=C(CCc1ccccc1)N=Nc1c(O)[nH]c2ccccc12	13.0	x
COc1cccc(-c2noc(NC3CCN(Cc4ccccc4)CC3)n2)c1OC	18.0	x
FC(F)(F)c1cccc(Nc2ncnc3sc4c(c23)CCC4)c1	14.0	-5.8
CCc1cc2c3c([nH]c2cc1S(=O)(=O)Nc1cccnc1)CCCC3=O	2.0	x
FC(F)(F)c1cccc(Nc2nnc(-c3cccnc3)s2)c1	x	0.4
Cc1ccc(-c2n[nH]c(=S)n2CCC(=O)O)cc1	10.0	x
O=C(Nc1nnc(SCC(=O)N2CCCc3ccccc32)s1)c1c(F)cccc1Cl	17.0	x
O=S(=O)(NC1CCN(Cc2ccccc2)CC1)c1ccc(Cl)cc1	x	-1.4
COc1ccc(C2OC(=O)Cc3cc(OC)c(OC)cc32)cc1 (stereo not drawn)	14.0	-1.5
O=[N+]([O-])c1ccc(Oc2c(Cl)cc(S(=O)(=O)N3CCCCC3)cc2Cl)cc1	x	-3.0

From PubChem BioAssay
